# Screening results: PubChem, several laboratories
# CBX7 inh = CBX7 inhibition, primary AlphaScreen; O95931; AlphaScreen His6-CBX7 / biotin-H3K27me3 peptide binding; hits give low values; normalised signal (fraction of DMSO) (concentration not given with the values); 66,000 tested, 1.1% active; AID 1224903; in the data active means normalised signal below about 0.5;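 further: 100 nL library stock added to about 20 µL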
# Target sequence (O95931 whole entry, looked up): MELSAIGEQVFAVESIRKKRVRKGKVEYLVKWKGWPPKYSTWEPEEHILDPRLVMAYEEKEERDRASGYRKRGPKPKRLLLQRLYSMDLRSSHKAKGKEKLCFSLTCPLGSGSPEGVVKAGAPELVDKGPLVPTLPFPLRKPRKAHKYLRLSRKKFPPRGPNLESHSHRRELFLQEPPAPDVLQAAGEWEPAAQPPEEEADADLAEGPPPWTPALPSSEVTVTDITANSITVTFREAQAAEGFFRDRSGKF
# CBX7 inh z-score = recorded beside CBX7 inh, whose call it bears; z-score; measured here: z-score of CBX7 signal; some inactives read as strong as hits; reference of the scale not given here;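 same signal on another scale; lower means less binding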
# Starred values were filed as active, the others as inactive.
# The first 6 compounds (preview)
mol,CBX7 inh,CBX7 inh z-score
CCC(=O)N1CCc2cc(S(=O)(=O)N(C)Cc3ccccc3)ccc21,1.1,1.1
CCOc1cc(C2NC(=O)c3c(sc4c3CCN(C)C4)N2)ccc1OCc1ccccc1 (centres undefined),0.96,-0.63
COC(=O)c1ccc(NC(=O)c2c(NCc3cccc(OC)c3OC)sc3c2CCC(C)C3)cc1 (centres undefined),0.85,-7.9
Cc1ccc(OC(C)c2nc(-c3ccc(OCC(N)=O)cc3)no2)cc1C (centres undefined),1.4,5.4
CCOC(=O)Cc1csc(NC(=O)c2cccs2)n1,0.99,-0.073
CC(=O)N1CCc2cc(S(=O)(=O)NC(C(=O)NCc3ccc4c(c3)OCO4)C(C)C)ccc21 (centres undefined),1,1.5

# All compounds of this part, from the start:
mol,CBX7 inh,CBX7 inh z-score
CCC(=O)N1CCc2cc(S(=O)(=O)N(C)Cc3ccccc3)ccc21,1.1,1.1
CCOc1cc(C2NC(=O)c3c(sc4c3CCN(C)C4)N2)ccc1OCc1ccccc1 (centres undefined),0.96,-0.63
COC(=O)c1ccc(NC(=O)c2c(NCc3cccc(OC)c3OC)sc3c2CCC(C)C3)cc1 (centres undefined),0.85,-7.9
Cc1ccc(OC(C)c2nc(-c3ccc(OCC(N)=O)cc3)no2)cc1C (centres undefined),1.4,5.4
CCOC(=O)Cc1csc(NC(=O)c2cccs2)n1,0.99,-0.073
CC(=O)N1CCc2cc(S(=O)(=O)NC(C(=O)NCc3ccc4c(c3)OCO4)C(C)C)ccc21 (centres undefined),1,1.5
COC(=O)c1ccc(C(=O)Nc2ccc3nc(NC(C)=O)sc3c2)cc1,1.3,2.2
CCc1ccc(NS(=O)(=O)c2ccc3[nH]cc(C(=O)N4CCCC4)c(=O)c3c2)cc1,0.82,-0.78

# Copied from the list:
# Under CBX7 inh z-score, CCc1ccc(NS(=O)(=O)c2ccc3[nH]cc(C(=O)N4CCCC4)c(=O)c3c2)cc1 has -0.78
# Under CBX7 inh, COC(=O)c1ccc(NC(=O)c2c(NCc3cccc(OC)c3OC)sc3c2CCC(C)C3)cc1 (centres undefined) has 0.85
# Under CBX7 inh, Cc1ccc(OC(C)c2nc(-c3ccc(OCC(N)=O)cc3)no2)cc1C (centres undefined) has 1.4

# (more compounds)
mol,CBX7 inh,CBX7 inh z-score
O=C1CCCc2c1cc(C(=O)NCCCO)c(=O)n2-c1ccc(Cl)cc1,1.1,0.45
COc1ccc(-c2noc(CCC(=O)N(C)c3ccccc3)n2)cc1,0.96,-0.9
Cc1cc(C)cc(OCC(=O)Nc2cccc(-c3nc4ncccc4o3)c2)c1,1.1,0.65
CCC1CN(C(=O)CCC(=O)NCc2ccc(F)cc2)c2cc(Cl)ccc2O1 (centres undefined),0.96,-0.46
O=C(NCc1nnc(SCC(=O)N2CCCc3ccccc32)o1)c1cccs1,1,0.14
COc1ccc(Cl)cc1NC(=O)c1n[nH]c(=O)c2ccccc12,1.1,0.79
CCc1nnc(NC(=O)c2ccc(S(=O)(=O)N(CC)Cc3ccccc3)cc2)o1,0.76,-5.5
Cc1cc2c(o1)-c1c(oc3ccc(Cl)cc13)CCC2C (centres undefined),1,-0.00029
CCN1CCN(c2ncc(C(=O)Nc3cc(OC)ccc3OC)c3ccccc23)CC1,1.2,0.43
C=CCc1cc(OC)ccc1OCC(O)CN1CCN(c2ccc(OC)cc2)CC1 (centres undefined),0.8,-1.7
Cc1cc(C)n(-c2nc3ccccc3nc2Nc2cccc(Cl)c2)n1,1.8,28
Cc1nc2c(-c3ccccc3)c(C)nn2c(C)c1CCC(=O)Nc1ccc(F)c(Cl)c1,0.85,-3.8
CCc1ccc(NC(=O)Cn2cnc3sc4c(c3c2=O)CCCC4)cc1,0.99,-0.23
COc1ccc(OC)c(CNC(=O)CCCc2cn(C)c3ccccc23)c1,0.46*,-9.4*
COc1ccc(N2C(=O)CCC(C(=O)NC3CCCCCC3)C2c2ccc(OC)c(OC)c2)cc1 (centres undefined),1.1,1.4
Cc1ccc(-n2cnc3cc(Nc4nnc(-c5ccccc5)c5ccccc45)ccc32)cc1,0.94,-1.2
COC(CNC(=O)c1csc2c1CCCCC2)OC,0.83,-2.1
CCCC(=O)N1CC(=O)Nc2ccc(C)cc2C1c1ccccc1 (centres undefined),1.1,0.34
O=C1CCCC2=C1C(c1ccsc1)CC(=O)N2c1ccc(Br)cc1F (centres undefined),1.1,1.4
O=C1CCCc2c1cc(C(=O)Nc1ccc(F)cc1)c(=O)n2-c1ccc(Cl)cc1,1,0.12
COc1ccc(-c2nn(Cc3ccccc3)c3nc(C)cc(C)c23)cc1,1.1,1.7
Cc1ccc2c(c1)-c1c(cnn1CC(=O)NCCCN1CCOCC1)CO2,0.95,-1.2
Cn1c(CCNC(=O)c2ccccc2)nc2ccccc21,1.1,1.7
COc1ccc(-c2nnc(SCC(=O)Nc3nc(-c4ccccc4)cs3)o2)cc1,1,0.89
Cc1ccc(NC(=O)c2cnc3ccccn3c2=O)cc1Cl,0.98,-0.62
O=C(NC1CCCC1)c1ccccc1-c1nc2ccccc2[nH]1,1.1,0.19
COc1ccccc1CNc1nc(Cc2ccccc2)nc2sc3c(c12)CCCC3,1.1,2
Cc1ccc2nc(-c3ccc(NC(=O)c4c(-c5ccccc5)noc4C)cc3)sc2c1,1.1,1.9
O=C(NCCc1ccc(Cl)cc1)C1C2C=CC3(CN(Cc4cccs4)C(=O)C13)O2 (centres undefined),1.2,2.6
COc1cccc(OC)c1C(=O)Nc1ccc2c(c1)nc(C)n2-c1ccccc1,1.4,1.5
CCCN(C(=O)c1ccc(-n2cnnn2)cc1)C(C(=O)Nc1c(C)cccc1C)c1ccccc1 (centres undefined),0.98,-0.48
CCc1ccc(NC(=O)Cn2cnc3sc(C)c(C)c3c2=O)cc1,1,1.2
Cc1ccc(C(C(=O)NC2CCCCC2)N(C)C)cc1 (centres undefined),1,0.18
CCN1CCN(c2oc(COc3ccc(F)cc3)nc2C#N)CC1,0.94,-0.38
COc1ccc(-c2cc(C(=O)NCc3ccc(Cl)cc3)no2)cc1,1.1,0.27
CCc1ccc(NC(=O)c2cnc(Nc3ccc(OC)cc3)c3ccccc23)cc1,1.1,1.1
Cc1ccc2nc(NC(=O)CSc3nccn3-c3cccc(C)c3C)sc2c1,1,0.043
CCOCCCNC(=O)c1c[nH]c2ccc(S(=O)(=O)Nc3cccc(OC)c3)cc2c1=O,0.86,-1.7
CCn1c(CCNC(=O)c2ccccc2)nc2ccccc21,1.1,1.2
Cc1cccc(Cn2c(C3CC(=O)N(c4ccccc4F)C3)nc3ccccc32)c1 (centres undefined),0.9,-0.73

# Two records picked at random from those above, as already listed:
mol,CBX7 inh,CBX7 inh z-score
CCc1ccc(NC(=O)c2cnc(Nc3ccc(OC)cc3)c3ccccc23)cc1,1.1,1.1
COc1ccc(-c2cc(C(=O)NCc3ccc(Cl)cc3)no2)cc1,1.1,0.27

# Following part.
mol,CBX7 inh,CBX7 inh z-score
Cc1cc(Br)ccc1NC(=O)c1sc2ncn(Cc3ccccc3F)c(=O)c2c1C,1.1,0.95
Cc1ccccc1OCC(=O)Nc1sc2c(c1C(=O)OC(C)C)CCCC2,1.1,0.26
O=C(c1ccc(C#CC2(O)CCCCC2)cc1)N1CCN(c2ccc(Cl)c(Cl)c2)CC1,0.74,-2.5
Cc1ccc(Nc2nc(-c3ccc(C(C)(C)C)cc3)cs2)cc1,0.89,-2.2
COCCCNC(=O)CSCc1nc(-c2ccc(OC)cc2)oc1C,1,0.2
COc1cccc2cc(-c3nnc(Nc4ccccc4)s3)c(=O)oc12,0.99,-0.24
CCc1ccc(NS(=O)(=O)c2ccc3[nH]cc(C(=O)N4CCCCCC4)c(=O)c3c2)cc1,1,-0.046
COC(=O)c1c[nH]n2c(NC3CCC(C)CC3)c(-c3cccc(F)c3)nc12 (centres undefined),0.33*,-0.75*
CCOc1ccc(NC(=O)CCNS(=O)(=O)c2ccc3c(c2)CCN3C(=O)CC)cc1,0.91,-0.12
CC(C)c1ccc(OCC(=O)Nc2c(C(=O)c3ccc(F)cc3)oc3ccccc23)cc1,1.3,0.9
CCc1ccc(-c2nc(CN3CCC(C(=O)NCCN(C)C)CC3)c(C)o2)cc1,0.86,-2.1
CC(=O)Nc1nnc(Cn2c(-c3nonc3NC(C)=O)nc3ccccc32)s1,1,0.53
Cc1ccccc1NC(=O)C1CCN(S(=O)(=O)c2cccc3cccnc23)CC1,0.97,-0.33
FC(F)(F)c1cccc(-c2noc(-c3cccs3)n2)c1,1.5,4.8
O=C(Nc1cc(Br)cc2cccnc12)C12CC3CC(CC(C3)C1)C2,0.95,-0.62
Cc1ccc(C(=O)NCCc2c(C)[nH]c3ccc(C)cc23)cc1,1,1.1

# (list continues)
compound	CBX7 inh	CBX7 inh z-score
Clc1ccc(-c2nc(Nc3cccc4ccccc34)sc2-c2ccccc2)cc1	0.82	-2.8
CC(C)c1ccc(N(C)C(=O)c2cnc(N3CCN(c4ncccn4)CC3)c3ccccc23)cc1	0.95	-0.9
CCOc1cc(CN2CCN(C3CCN(Cc4ccccc4)CC3)CC2)ccc1OC	1	0.46
Cc1ccc(-c2nnc(Nc3ccc(Br)cc3)c3ccccc23)cc1S(=O)(=O)NCCO	1.1	0.21
CCOC(=O)c1cnc2c(C)cc(Cl)cc2c1NCCN(C)C	1.1	0.4
COc1cccc(NC(=O)C2CCN(S(=O)(=O)c3cccc4nonc34)CC2)c1	0.97	-0.043
COc1ccc(NC(=O)c2cc(-c3ccc(Cl)cc3)nc3ccccc23)c(OC)c1	0.94	-0.46
NC(=O)c1c(NC(=O)c2ccc(Oc3ccccc3)cc2)sc2c1CCCC2	0.99	-0.052
CC(=O)Nc1ccc(NC(=O)CSc2nc3ccccc3s2)cc1	1	0.0052
COc1cc2c(C(=O)N(C)c3cc(Cl)ccc3C)cn(CC(C)C)c(=O)c2cc1OC	1	0.37
Cc1cccc(N2CCN(C(=O)CS(=O)(=O)Cc3nc(-c4ccccc4F)oc3C)CC2C)c1 (centres undefined)	0.63	-9.7
CCN(CC)c1ccc(NC(=O)c2c(-c3ccccc3)noc2C)cc1	0.56	-11
CCCOc1ccc(C(=O)Nc2cccc(-c3nc4ncccc4o3)c2)cc1	1.1	2.6
Cc1ccc(-c2cn(-c3ccc(C)cc3)c(S(=O)(=O)CC(=O)Nc3ccc(F)cc3)n2)cc1	0.79	-0.36
COc1ccc(NC(=O)c2cccnc2Nc2ccc(F)cc2)cc1	0.91	-3.2
CCCCN(CCCC)S(=O)(=O)c1ccc2[nH]c(=O)cc(C(=O)NCCc3ccccc3)c2c1	0.97	-0.89
Cc1cccc(CCNc2cc(C)nc3nc(C)nn23)c1	1.2	3.5
Cc1nc(N2CCC(C)CC2)c2c(C)c(C)sc2n1	1.2	2.5
Cc1nc(Oc2ccccc2)c2c3c(sc2n1)CCCC3	1.1	0.12
COc1ccc(NC(=O)Cn2cc(S(=O)(=O)c3ccc(F)cc3)c(=O)c3ccccc32)cc1OC	0.99	-0.18
COc1ccccc1-c1coc2c(CN3CC(C)OC(C)C3)c(O)ccc2c1=O (centres undefined)	1	0.44
CCCC1=Nc2cc(C(=O)N3CCc4ccccc4C3)ccc2Sc2ccccc21	0.78	-2.7
CCOC(=O)N1CCN(c2c(N3CCCC3)c(=O)c2=O)CC1	1.1	1.8
O=C(Nc1ccc2nc3n(c(=O)c2c1)CCCCC3)c1cccnc1	0.98	-0.53
COCCCNC(=O)CSc1nc(-c2ccccc2)[nH]c1-c1ccc(C)cc1	0.92	-1.4
COc1ccc2c(c1)c(CC(=O)NC1CC1)c(C)n2C(=O)c1ccc(Cl)cc1	0.89	-0.72
COc1ccccc1NC(=O)CCc1nc(-c2cccs2)no1	1.1	1.9
O=C(NCc1ccccn1)c1cc(Sc2ccccc2C(F)(F)F)nc2ccccc12	1	0.35
O=C1CCc2cc(S(=O)(=O)NCc3ccc4c(c3)OCO4)ccc2N1	1.2	4.1
COc1cc2c(cc1OC)C(C(=O)NCCN1CCOCC1)C(c1ccccc1F)N(C)C2=O (centres undefined)	1.1	0.97
CC1(C)CC2CC(C)(CN2C(=O)Nc2ccc3nc(-c4ccccn4)c(-c4ccccn4)nc3c2)C1 (centres undefined)	1.1	2.7
Cc1ccccc1NC(=O)CCc1c(C)nc2cc(-c3ccccc3)nn2c1C	0.98	-0.63
COc1nnc(-c2ccc(N3CCCCC3)c(NC(=O)COc3ccc(C)cc3)c2)c2ccccc12	0.93	-2
Cc1ccccc1CN1C(=O)CSc2ccc(C(=O)NCCC3=CCCCC3)cc21	1.1	0.61
C#CCOc1ccc(-c2nnc(Nc3ccc(OCC(N)=O)cc3)c3ccccc23)cc1	0.82	-0.83
O=C(NC1CCCC1)c1cc2n(n1)C(C(F)(F)F)CC(c1ccc(Br)cc1)N2 (centres undefined)	0.98	-0.4
COc1ccc(CCNC(=O)CN2CC(c3ccccc3)CC2=O)cc1OC (centres undefined)	1	0.47
COc1ccc(-c2cn3c(C)c(C(N)=O)sc3n2)cc1	1	0.3
O=C(Cc1ccc(NC2=NC3CS(=O)(=O)CC3S2)cc1)NCc1ccc(Cl)cc1 (centres undefined)	0.82	-2
CCCOc1ccc(C2C(=O)N(C3CCC(C)CC3)CC(=O)N2CCC2=CCCCC2)cc1OC (centres undefined)	0.98	-0.38
COc1ccc(CNC(=O)CCc2c(C)nc3nc(-c4cc(OC)cc(OC)c4)nn3c2C)cc1	1.1	1.5
COc1ccccc1Nc1nc(-c2cccnc2)nc2ccccc12	1.1	2.8
COC(=O)c1ccc(C2CC(=O)Nc3c2ccc2ccccc32)cc1 (centres undefined)	0.79	-2.2
CCOC(=O)c1cnc2ccc(C)cc2c1N(C)Cc1ccccc1	1.4	4
COc1ccccc1NC(=O)c1cc(-c2ccc(C)cc2)nc2ccccc12	0.85	-1.3

# Some of the compounds tested; count on the stated rates, not on these rows.
